Bioassay records as filed in PubChem BioAssay.
Mtb growth: Confirmatory growth inhibition assay against Mycobacterium tuberculosis H37Rv, potency (AID 1949) | most inactive calls were filed without a number and no value below 0 was filed | 100,000 compounds, 1.6% hits | one-dose inhibition, % at 10 µg/mL; IC50 in µg/mL for titrated hits;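 active = confirmed in a dose series; inconclusive = about 50% or more but not retested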;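 note: bacteria grown 7 days with compound before Alamar blue readout; 0% = untreated bacteria and 100% = reference antibiotic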
* hit, by the source's call; i = inactive; ? = inconclusive. Only part of the results is shown; count on the stated rates, not on these rows.

SMILES	Mtb growth
Cc1ccc(N2C3=C(C(=O)CC(C)(C)C3)C(c3ccc(O)cc3)C3=C2CC(C)(C)CC3=O)cc1	i
CCCn1nnc(NC(=O)COc2ccccc2Cl)n1	i
CCOC(=O)COc1ccc2c(=O)c(-c3ccccc3F)coc2c1C	<0.1µg/mL*
Cc1sc2ncn(Cc3cccc(Cl)c3)c(=O)c2c1-c1ccccc1	i
CCOC(=O)C(Oc1cc(C)cc2oc(=O)c3c(c12)CCCC3)c1ccccc1 (stereo not drawn)	i
Cc1ccc(C(C)C)c(OCCCn2ccnc2C)c1	6.0%
c1cc2c(cc1CNCCCN1CCOCC1)OCO2	i
Cc1ccccc1N1CC(C(=O)OCC(=O)c2ccc(Br)cc2)CC1=O (stereo not drawn)	i
Cc1cc(C(F)F)n2ncc(C(=O)Nc3ccc(Cl)c(C(F)(F)F)c3)c2n1	i
CC1=C(C(=O)Nc2ccc(F)cc2)C(c2cccc(Cl)c2)C2=C(CC(C)(C)CC2=O)N1 (stereo not drawn)	i
CCCCC(=O)Nc1ncc([N+](=O)[O-])s1	0.5%
CCOC(=O)C1=C(C)N=c2s/c(=C\c3ccc(Cl)cc3Cl)c(=O)n2C1c1ccc(C)cc1 (stereo not drawn)	5.4%
COc1cc(S(=O)(=O)N2CCc3ccccc32)c(OC)cc1Cl	i
O=c1c2c(-c3ccccc3)csc2ncn1Cc1c(F)cccc1Cl	1.8%
COc1ccccc1C1=NOC(COC(=O)c2ccc3ccccc3n2)C1 (stereo not drawn)	7.6%
COc1nnc(-c2ccc(C)c(S(=O)(=O)NCC3CCCO3)c2)c2ccccc12 (stereo not drawn)	i
Cc1ccc(S(=O)(=O)Cc2cccc(C(=O)N3CCOCC3)c2)cc1	i
CC(=O)c1ccc(NC(=O)C2CCCC2)cc1	i
COc1ccc(C(=O)CC(=O)O)c2c1C=CC(C)(C)O2	0.2%
CCOc1ccccc1CN1CCC(N2CCN(c3ccccc3F)CC2)CC1	i
CCOC(=O)C1=C(c2ccc(-c3ccccc3)cc2)C(=O)c2ccccc2C1=O	i
COc1ccc(C/C(N)=N/OC(=O)Cc2ccccc2)cc1OC	i
O=C(O)C1C2C=CC(C2)C1C(=O)NCc1cccnc1 (stereo not drawn)	2.9%
COc1cc(NC(=O)COc2cc(C)c(Br)c(C)c2)cc(OC)c1	i
O=C(Nc1ccc(C(=O)N2CCCC2)cc1)c1ccc2c(c1)OCCO2	4.5%
CCOc1cccc(OCCCNCCOC)c1	i
COc1ccc(-c2noc(-c3cccc(Br)c3)n2)cc1OC	i
O=C(Nc1ccc2c(c1)C(=O)OC2)NC1CCCCC1	i
COCCNC(=O)c1cc(OC)c(OC)cc1OC	i
COc1cccc(NC(=S)Nc2cccc(C)c2C)c1	i
COc1ccc(N2C(=O)c3ccccc3C2(O)c2ccccc2)cc1OC (stereo not drawn)	i
CCC(NC(=O)Cc1cccc2ccccc12)c1ccccc1 (stereo not drawn)	2.5%
C=CCn1c(Cc2csc(N)n2)nnc1SCC(=O)OCC	i
CC(=O)c1cccc(NC(=O)NNC(=O)CSCc2ccc(Cl)cc2Cl)c1	4.6%
CCC(=O)NC(=S)Nc1ccc(NC(=S)NC(=O)c2ccccc2)cc1	3.9%
O=[N+]([O-])c1ccc(Sc2ncccn2)nc1	2.4%
Cc1ccc(C2CC(=O)c3cnc(NCCN4CCOCC4)nc3C2)cc1 (stereo not drawn)	i
CCc1nc(SCC(=O)Nc2nnc(C)s2)n[nH]1	i
CC(C)c1ccc(OCc2nnc(SCC(=O)Nc3ccc(Br)cc3F)o2)cc1	i
C=C(C)COc1ccc(C#N)cc1OC	5.1%
Cc1cc(Cl)c(OCCOCCNCCN)c(Br)c1	i
COc1cccc(N2C(=O)CC(N3CCC(c4nc5ccccc5[nH]4)CC3)C2=O)c1 (stereo not drawn)	i
CCCC(=O)Nc1ccc(Cl)c(NC(=O)c2ccc(Br)o2)c1	i
Cc1ccc(C(=O)Nc2ccccc2Br)cc1S(=O)(=O)Nc1ccccc1	i
CCOC(=O)C12C(=O)OC(C)(C)C1C2(CC)C(=O)c1ccc(C)cc1 (stereo not drawn)	i
COC(=O)c1ccccc1NC(=O)CNC(=O)c1ccccc1F	i
Cc1ccc(NC(=O)C2(c3ccccc3)CCOCC2)c([N+](=O)[O-])c1	5.5%
COc1ccc(-n2c(SCCCN3C(=O)c4ccccc4C3=O)nnc2-c2ccncc2)cc1	i

Given bar-delimited: entries from further up
structure | Mtb growth
Cc1ccc(C(C)C)c(OCCCn2ccnc2C)c1 | 6.0%
CCCn1nnc(NC(=O)COc2ccccc2Cl)n1 | i
CC1=C(C(=O)Nc2ccc(F)cc2)C(c2cccc(Cl)c2)C2=C(CC(C)(C)CC2=O)N1 (stereo not drawn) | i
Cc1ccc(N2C3=C(C(=O)CC(C)(C)C3)C(c3ccc(O)cc3)C3=C2CC(C)(C)CC3=O)cc1 | i

Next entries
SMILES	Mtb growth
Cc1occc1C(=O)N1c2ccc(F)cc2CCC1C (stereo not drawn)	i
O=C(Nc1cccc2c1CCCC2)c1ccc2c(c1)OCO2	i
O=C(Nc1ncc(Cc2ccccc2)s1)c1ccc2c(c1)OCCCO2	23.9%
CCc1sc(NC(=O)Cc2ccc(C)cc2)nc1-c1ccccc1	22.0%
Cc1cc(C)n2nc(C(=O)NCc3ccco3)cc2n1	i
CCOC(=O)Cc1[nH]nc2c1C(C(C)C)C(C#N)=C(N)O2 (stereo not drawn)	1.5%
OC(COCc1ccc(Cl)cc1)CN1CCN(c2cccc(Cl)c2)CC1 (stereo not drawn)	?
O=C(NCc1ccco1)C12CC3CC(CC(C3)C1)C2	i
CSc1ccc(Cl)c(C(=O)Nc2ccc(Cc3ccccn3)cc2)c1	i
CCN(CC)C(=O)C1=C(C)NC(=S)NC1c1ccccc1F (stereo not drawn)	i
CCOc1ccc(-n2c(SCC(=O)C(C)(C)C)nc3sc4c(c3c2=O)CCCC4)cc1	i
Cc1cccc(-c2nnc(SCC(=O)Nc3c(Cl)cc(Cl)cc3Cl)o2)c1	i
CCOC(=O)CSc1nc2ccccc2n1Cc1ccccc1	i
COc1cc(SC)ccc1C(=O)NCc1ccccc1Cl	i
NC(=O)COc1ccc(C=O)cc1Cl	i
CCOc1cc(C(=S)N2CCCCC2)ccc1OS(=O)(=O)c1ccc(Cl)cc1	i
O=C(Nc1ccccc1Cl)C1COc2ccccc2O1 (stereo not drawn)	i
O=C(O)c1cc(S(=O)(=O)Nc2ccc(Br)cc2)ccc1Cl	i
CCCCC(=O)Nc1cc2nn(-c3ccc(N(CC)CC)cc3)nc2cc1C	i
COc1ccc(C(=O)Nc2cc(Cl)ccc2C)cc1OC	i
O=Cc1ccccc1OCC(=O)NC1CCCCC1	i
O=C(CCN1C(=O)C2C3C=CC(C4CC34)C2C1=O)OCc1ccccc1Cl (stereo not drawn)	29.4%
O=C(Nc1cccc(-c2cn3ccccc3n2)c1)c1cccs1	6.0%
Cc1ccc(CC(=O)N2CCCc3ccccc32)cc1	3.7%
Fc1c(F)c(NCc2ccccc2)c(F)c(F)c1/C=C/CN1CCOCC1	i
CC(=O)Nc1ccc(Nc2ncnc3sc4c(c23)CCCC4)cc1	7.2%
C=CCSc1nnc(NC(=O)CSc2nc3ccccc3[nH]2)s1	3.2%
Cc1cc(O)c(NC(=S)NC(=O)COc2ccc(Cl)cc2Cl)cc1C	1.0%
COc1ccccc1OCC#CCn1cnc2ccccc2c1=O	i
O=C(CNC(=O)c1ccc(COc2ccc(Cl)cc2)cc1)c1ccccc1	i
CC(=O)N(c1ccc(C)cc1)S(=O)(=O)c1ccc(Cl)cc1	i
CC(C)n1c(NCc2nc3ccccc3n2C)nc2ccccc21	i
O=C(Nc1cccc(Cl)c1Cl)c1cccc(Cl)c1	11.3%
CC(NC(=O)Cc1c(F)cccc1Cl)C1CCCO1 (stereo not drawn)	i
CS(=O)(=O)N(CC(=O)NCCC1=CCCCC1)c1cccc2ccccc12	i
CCOC(=O)N1CCN(C(=O)CN(c2cc(C)ccc2C)S(C)(=O)=O)CC1	i
Cc1ccc(-n2c(N)c(C#N)c3nc4ccccc4nc32)cc1Cl	i
COC(=O)c1ccccc1NC(=O)Cn1c(-c2nonc2N)nc2ccccc21	i
CC(C)(C)c1ccc(OCc2nnc(SCc3csc(N)n3)n2-c2ccccc2)cc1	?
Cc1nn(Cc2cccc(C(=O)NCc3ccc4c(c3)OCO4)c2)c(C)c1Cl	i
COc1ccc(C)cc1NC(=O)C(=O)N1CCCCC1	0.4%
O=C(CC12CC3CC(CC(C3)C1)C2)NC(=S)N1CCCCC1	0.9%
CC(=O)Nc1ccc(NC(=O)c2ccc(-c3ccccc3F)o2)cc1	i
COc1ccc(C2C(C(=O)c3ccco3)=C(O)C(=O)N2CC2CCCO2)cc1OC (stereo not drawn)	i
Cc1cc(Br)cc(C)c1NC(=O)CSc1nnc(Cc2ccccc2)n1-c1ccc(F)cc1	i
N/C(=N\OC(=O)c1cc(Br)ccc1Cl)c1ccccn1	?
CCOC(=O)N1CCN(C(=O)CC2c3ccccc3Oc3ccccc32)CC1	i
O=C(CSc1nnc(CCc2ccccc2)n1Cc1ccccc1)NCc1ccccc1	i
O=C(CCC(=O)OCC(=O)c1ccccc1)Nc1cc(Cl)ccc1Cl	i
S=C(NCc1ccc(Cl)cc1)N1CCC2(CC1)OCCO2	i
O=C1OC(c2ccc(Br)cc2)=N/C1=C\c1ccc(OC(=O)c2ccccc2F)cc1	i
O=C(c1ccc(N2CCN(C(=O)c3ccccc3F)CC2)cc1)c1cccc(F)c1	11.1%
COc1ccc(-n2ncc3c(NCCCN4CCOCC4)ncnc32)cc1	i
CCCc1nnc(NC(=O)c2ccc(-c3ccccc3)cc2)s1	i
CCc1ccc(OCC(=O)Nc2ccc(S(=O)(=O)N(C)C)cc2)cc1	1.4%
Cc1nc(N2CCC(C)CC2)nc(N2CCOCC2)c1[N+](=O)[O-]	9.6%
O=S(=O)(Nc1ccc(O)c(Sc2ncn[nH]2)c1)c1cccs1	i
Cc1cccc(C(C)C)c1NC(=O)CN(c1cc(C(F)(F)F)ccc1Cl)S(C)(=O)=O	6.6%
Cc1ccc(C(=O)N2CCN(c3cccc(Cl)c3)CC2)cc1Cl	i
COc1ccc(OC(=O)c2oc3nc(C)c(C)c(C)c3c2N)cc1OC	1.8%

Brought forward from above: 7 compounds, then new ones.
SMILES	Mtb growth
CCCc1nnc(NC(=O)c2ccc(-c3ccccc3)cc2)s1	i
CCc1ccc(OCC(=O)Nc2ccc(S(=O)(=O)N(C)C)cc2)cc1	1.4%
Cc1nc(N2CCC(C)CC2)nc(N2CCOCC2)c1[N+](=O)[O-]	9.6%
O=S(=O)(Nc1ccc(O)c(Sc2ncn[nH]2)c1)c1cccs1	i
Cc1cccc(C(C)C)c1NC(=O)CN(c1cc(C(F)(F)F)ccc1Cl)S(C)(=O)=O	6.6%
Cc1ccc(C(=O)N2CCN(c3cccc(Cl)c3)CC2)cc1Cl	i
COc1ccc(OC(=O)c2oc3nc(C)c(C)c(C)c3c2N)cc1OC	1.8%
CC(=O)c1c(C)n(Cc2ccccc2)c2ccc(OC(=O)CN3C(=O)c4ccccc4C3=O)cc12	i
CCc1cccc(CC)c1NC(=O)c1cccc([N+](=O)[O-])c1C	i
O=C1CC(C(=O)Nc2ccccc2)N=C(N2CCOCC2)N1 (stereo not drawn)	i
O=C(Nc1ccc(Br)cc1)C(=O)N1CCOCC1	i
CCC1CCc2nc3sc(C(=O)Nc4ccc(C(C)=O)cc4)c(N)c3cc2C1 (stereo not drawn)	6.8%
CC(=O)c1cccc(OCCCN2CCOCC2)c1	i
CCn1c(COc2cccc(C)c2)nnc1SCC(=O)c1ccccc1	i
Fc1ccc(CSc2nc3ccc(Cl)cc3[nH]2)cc1	?
Cc1nc(CN2CCN(C(=O)c3ccc(Br)cc3)CC2)cs1	i
CCOC(=O)C1=C(c2ccccc2)NC(=S)NC1c1cc(O)ccc1Br (stereo not drawn)	i
CC(=O)Nc1cc(NC(C)=O)c(C)c(C(=O)O)c1	i
Cn1cccc1CN1CCN(Cc2ccco2)CC1	i
C=CCNC(=O)c1ccccc1NC(=O)c1ccc(N(Cc2ccccc2Cl)S(C)(=O)=O)cc1	12.1%
COCCNC(=O)c1ccc(N(Cc2ccc(C)cc2)S(C)(=O)=O)cc1	i
Cc1c(C(=O)Nc2c(C)n(C)n(-c3ccccc3)c2=O)oc2ccccc12	i
Cc1cccc(OCCn2c(CCNC(=O)C(C)C)nc3ccccc32)c1	i
Cc1ccc2oc(C(=O)Nc3ccccc3F)c(C)c2c1	i
O=C1Nc2ccc(S(=O)(=O)NCC3CCCO3)c3cccc1c23 (stereo not drawn)	1.3%
Cc1cccc(OC(=O)C(Cc2ccccc2)N2C(=O)C3C4CCC(C4)C3C2=O)c1C (stereo not drawn)	3.2%
COc1ccc(OC)c(NC(=O)N2C(C)CCCC2C)c1 (stereo not drawn)	i
CCOc1cc(C2C(C(=O)N3CCCCC3)=C(C)NC3=C2C(=O)CCC3)cc(Br)c1O (stereo not drawn)	i
CC(C)Cc1nnc(NC(=O)C(Sc2ccccc2)c2ccccc2)s1 (stereo not drawn)	i
Cc1cn(-c2ccc(Br)cc2)[nH]c1=O	i
O=C(Nc1ccc(OC(F)(F)F)cc1)Nc1ccc(F)cc1F	41.3%
COC(=O)Cc1c(C)c2ccc(OCC(=O)c3cccc([N+](=O)[O-])c3)c(C)c2oc1=O	i
COC(=O)c1c(C)oc2cc(Br)c(O)c(C=O)c12	i
COc1ccc(/C(N)=N/OC(=O)C2CCCCC2)cc1OC	7.5%
CCCCc1nnc(NC(=O)CSc2nc3ccccc3[nH]2)s1	i
CC(=O)C(Sc1cc(C)nc(N)n1)C(=O)Nc1ccccc1 (stereo not drawn)	1.6%

Ordered by count of non-hydrogen atoms (rising): some entries from above
SMILES	Mtb growth
Cc1cn(-c2ccc(Br)cc2)[nH]c1=O	i
COC(=O)c1c(C)oc2cc(Br)c(O)c(C=O)c12	i
COc1ccc(/C(N)=N/OC(=O)C2CCCCC2)cc1OC	7.5%
CCCCc1nnc(NC(=O)CSc2nc3ccccc3[nH]2)s1	i
CC(C)Cc1nnc(NC(=O)C(Sc2ccccc2)c2ccccc2)s1 (stereo not drawn)	i
CCOc1cc(C2C(C(=O)N3CCCCC3)=C(C)NC3=C2C(=O)CCC3)cc(Br)c1O (stereo not drawn)	i
